VACV mCherry inh = inhibitors of vaccinia virus infection (mCherry reporter signal); Vaccinia virus mCherry reporter infection, fluorescence; about a quarter of the inactives have no number; Potency, µM (top dose mostly 36.5 µM), for the others: at the top dose activity change, negative = inhibition, actives largely listed as inhibitors; 310,000 tested, 0.63% active; AID 720579; active = well fitted inhibition curve with a large enough effect; inconclusive = small, poorly fitted or top-dose-only effect; inactive = no such curve, though single readings can be large or run the other way; tested in A549 cells; also: nearly all actives have a fitted effect of over 35% in size; inactives centre near -10
VACV Venus inh = inhibitors of vaccinia virus (Venus reporter); Vaccinia virus Venus reporter expression, fluorescence; Potency, µM (top dose mostly 36.5 µM), for the others: at the top dose activity change, negative = inhibition, most hits filed as inhibitors; 330,000 tested, 0.46% active; active means well fitted inhibition curve with a large enough effect; inconclusive means small, poorly fitted or top-dose-only effect; inactive means no such curve, though single readings can be large or run the other way; tested in A549 cells; also: nearly all actives have a fitted effect of over 30% in size; inactives centre near -10
An asterisk follows results filed as active; i = inactive; ? = inconclusive; . = not tested or not shown; & = joins results of further samples; [ ] = remark or other dose. % is scaled to controls: 0 for no effect and ±100 for the full control effect; potency is read from the fitted curve at half-maximal effect. Rows are unselected; any-hit rate near 0.82%.

SMILES	VACV mCherry inh	VACV Venus inh
CC(C)CN(CC(C)C)C(=S)Nc1ccc(Cl)cc1	-8%	-24%
COC(=O)CCCC(=O)N1CCOCCN(C(=O)CCCC(=O)OC)CCOCC1	.	-12%
O=C(C[N+]1(CCc2ccccc2)CCOCC1)c1cccc([N+](=O)[O-])c1	-16%	-9%
O=C(Nc1cccc(S(=O)(=O)NC2=NCCC2)c1)c1cc(-c2ccco2)nc2ccccc12	i	3%
COc1cc(OC)c(C(=O)N/N=C/c2ccoc2)cc1OC	0%	4%
C[N+](C)(C)c1ccccc1	-3%	-13%
CCc1cc(=O)oc2cc(C)cc(OCC(C)=O)c12	-12%	-5%
Oc1ccc(Cl)cc1C(C#Cc1ccccc1)N1CCOCC1 (stereo not drawn)	.	-26%
Cn1c(=O)n(Cc2ccc(Br)cc2)c2ccccc21	-8%	-9%
COc1ccc(OCC(=O)Nc2ccc3oc(=O)ccc3c2)cc1	i	-17%
Cc1ccc(O)c(C(=O)c2cnn(C(=O)Cc3csc(C)n3)c2)c1	-8%	-22%
Cc1ccc(S(=O)(=O)N2CCN(c3nc(-c4ccccc4)nc4ccccc34)CC2)cc1	-10%	-15%
O=C(CCc1ccccc1)NCc1nc2cccnc2n1Cc1ccc(F)cc1	-9%	-12%
Cc1ccc(S(=O)(=O)N2CCOCC2)cc1C(=O)OC1CCCCC1=O (stereo not drawn)	i	1%
CC(=O)N1CC2(CC(c3ccccc3C(F)(F)F)=NO2)CN1c1ccc(Cl)cc1 (stereo not drawn)	-3%	-10%
CN(C)C(=O)C1C2NC(=S)N(c3ccc(Cl)cc3)C1(C)Oc1ccc(Cl)cc12 (stereo not drawn)	-5%	-16%
O=C1CC[C@H](O)CCN1[C@H](CSc1ccc(Br)cc1)Cc1ccccc1	-16%&-6%	-29%&-16%
CC(=O)Nc1ccccc1-c1nnn(CC(=O)Nc2ccc3c(c2)OCCO3)n1	-6%	-5%
O=C1CN(C(=O)CNCc2cccc(Cl)c2)c2ccccc2N1	-14%[7.34 µM]	-3%[7.34 µM]
O=C(NCc1cccs1)c1ccc(Cl)c(S(=O)(=O)N2CCCC2)c1	i	-15%
C=CCNC(=S)N1CCN(c2cc3c(cc2F)c(=O)c(C(=O)O)cn3CC)CC1	i	-13%
Cc1ccc(C2(C(F)(F)F)NC(=O)N3N=C4CCCCCN4C3=C2C#N)cc1 (stereo not drawn)	i	3%
O=C(Nc1ccc2c(c1)OCCO2)C1c2ccccc2OCC(=O)N1CCc1c[nH]c2ccccc12 (stereo not drawn)	0%	0%
CC(C)Cn1c(N)c(C(=O)CSc2nnc(C3CC3)n2C2CC2)c(=O)n(C)c1=O	i	-9%
CN1CCN(C(=O)OCCOCCOC(=O)N2CCN(C)CC2)CC1	-14%	-8%
NC(=O)CSc1nccn1Cc1ccccc1	i	-2%
COc1ccc2[nH]cc(CCNC(=O)COc3cc(C)cc4oc(=O)cc(C)c34)c2c1	-4%	-7%
CCc1cccc(CC)c1NC(=O)C[n+]1cccc(C(N)=O)c1	-3%	-1%
Cc1ccc(C)c2c1cc(C)c1nnc(SCC(=O)N3CCCc4ccccc43)n12	i	-8%
COCCNC(=O)c1cc2c(c(-c3cccc(C#Cc4ccc(OC)c(OC)c4)c3)n1)[C@H](CCO)N(S(=O)C(C)(C)C)C2 (stereo partly drawn)	i	-9%
Cc1ccc(S(=O)(=O)N2[C@@H](c3ccccc3)C(C(=O)O)=CC[C@H]2c2ccc3c(c2)OCO3)cc1	i	-12%
CCOc1ccccc1N1CCN(C(=O)c2cccc(-c3ccc(O)cc3)c2)CC1	-3%	-9%
Cc1cccc(C)c1OCCNC(=O)c1ccc2ccccc2n1	?	-26%
COc1ccc(CN(C)C(=O)C2CCN(C(=O)Nc3ccccc3)CC2)cc1	i	-17%
O=C(O)c1ccc(/C=N/Nc2ncc(C(F)(F)F)cc2Cl)cc1	0%	-9%
CC(NC(=O)Nc1ccccc1)C(c1cccs1)N1CCOCC1 (stereo not drawn)	-20%	6%
CCC(=O)N1CCc2cc(S(=O)(=O)NC(C(=O)NCc3ccc(OC)cc3)C(C)C)ccc21 (stereo not drawn)	-9%	-3%
O=C(Nc1ccc(O)c2c(=O)cc(-c3cccc(Cl)c3)oc12)c1ccccc1Cl	-12%	-24%
COCCCNC(=O)Nc1ccc(F)cc1F	-10%	-5%
Cc1cccc(NC(=O)C(=O)NCC2CCCN2S(=O)(=O)c2cccs2)c1C (stereo not drawn)	-26%	-13%

Of the compounds above, these have an aryl methoxy group.
SMILES	VACV mCherry inh	VACV Venus inh
COc1cc(OC)c(C(=O)N/N=C/c2ccoc2)cc1OC	0%	4%
COc1ccc(OCC(=O)Nc2ccc3oc(=O)ccc3c2)cc1	i	-17%
COc1ccc2[nH]cc(CCNC(=O)COc3cc(C)cc4oc(=O)cc(C)c34)c2c1	-4%	-7%
COCCNC(=O)c1cc2c(c(-c3cccc(C#Cc4ccc(OC)c(OC)c4)c3)n1)[C@H](CCO)N(S(=O)C(C)(C)C)C2 (stereo partly drawn)	i	-9%
COc1ccc(CN(C)C(=O)C2CCN(C(=O)Nc3ccccc3)CC2)cc1	i	-17%
CCC(=O)N1CCc2cc(S(=O)(=O)NC(C(=O)NCc3ccc(OC)cc3)C(C)C)ccc21 (stereo not drawn)	-9%	-3%

(list continues)
SMILES	VACV mCherry inh	VACV Venus inh
O=C(NCc1ccc(OC(F)(F)F)cc1)c1cccc2c1C(=O)c1ccc(N3CCC(Cc4ccccc4)CC3)cc1S2(=O)=O	-2%	-13%
Cc1ccc(-c2cc[n+](Cc3ccccc3)cc2)cc1	-29%	-15%
COC(=O)c1cc(Cl)c(NC(=O)c2cc3ccccc3o2)cc1OC	.	-7%
Cc1cc(C)n2nc(C(=O)NNC(=O)c3ccccc3)nc2n1	2%	-6%
Cc1ccc(NC(=O)COC(=O)CCc2nc3ccccc3c(=O)[nH]2)cc1Cl	-7%	-4%
CC[C@]1(C(=O)OC)[C@H]2C(=O)N(Cc3ccccc3)C(=O)[C@H]2[C@H]2CN(C)C(=NCc3ccccc3)N21	i	-14%
CCCc1cc(=O)oc2cc(OC(=O)CN3C(=O)NC4(CCCC4)C3=O)ccc12	-4%	-11%
Nc1ccc(-c2nnc(-c3ccc(N)cc3)o2)cc1	-23%	6%
CC1CN(C(=O)CSc2nc(-c3ccc(F)cc3)cs2)CC(C)O1 (stereo not drawn)	.	-20%
COc1ccccc1N(CC(=O)NCCSCc1ccco1)S(=O)(=O)c1ccccc1	-23%	-9%
Cc1ccc(S(=O)(=O)NCC(=O)N2CCOCC2)cc1	i	-2%
CCCn1nnnc1NCc1ccccc1OCc1cccs1	-3%	-10%
CCN1C(C)=CC(=O)[C@@H](O)[C@H]1c1ccccc1Br	-10%	4%
CC1(C)CC(=O)C(C=NCCN2CCNCC2)=C(O)C1	i	-3%
Cc1ccc(CNC(=O)Cn2c(=O)cc(C)c3c(C)nn(-c4cccc(F)c4)c32)cc1	-3%	-3%
COc1ccc(OC)c(C2=NOC(C(=O)NCC3CCCO3)C2)c1 (stereo not drawn)	-19%	-19%
COc1ccc(CC(=S)N2CCOCC2)cc1F	-14%	-1%
Cc1cc(NC(=O)CSc2nccn2-c2cccc(Cl)c2)no1	-7%	-5%
COc1ccc(/C=N/NC(=O)c2ccc(C)nc2)cc1O	?	-6%
CC(=O)Nc1ccc(C(=O)COC(=O)CCc2ccccc2)c(F)c1	i	-10%

Record cards, as listed above.
Record of `Cc1ccc(CNC(=O)Cn2c(=O)cc(C)c3c(C)nn(-c4cccc(F)c4)c32)cc1` : VACV mCherry inh = -3%; VACV Venus inh = -3%
Record of `CC(=O)Nc1ccc(C(=O)COC(=O)CCc2ccccc2)c(F)c1` : VACV mCherry inh = i; VACV Venus inh = -10%

The listing continues.
SMILES	VACV mCherry inh	VACV Venus inh
N#Cc1ccc(C#Cc2ccc3oc4ccccc4c(=O)c3c2)cc1	i	-16%
COc1ccc(OCc2nc(C#N)c(NCCCn3ccnc3)o2)cc1	-5%	-10%
COc1ccccc1N1CCN(C(=O)CN(C)S(=O)(=O)c2cc(C)ccc2OC)CC1	-1%	-9%
CC12CN3CC(C)(CN(C1)C31CCSCC1)C2=O	i	-16%
CN1CCCC(CN(C)C(=O)c2cnn(-c3nccc(-c4ccccc4C(F)(F)F)n3)c2C2CC2)C1 (stereo not drawn)	0%	-5%
Cc1ccc(C(=O)N/C(=C/c2ccc(-c3ccc([N+](=O)[O-])cc3)o2)C(=O)NCCCN(C)C)cc1	?	11µM*
CCC1(C)CC2(CCCN(CCC(O)(c3ccccc3)c3ccccc3)C2)CCO1 (stereo not drawn)	-24%	-17%
CNc1nc(N2CCc3ccccc32)ncc1F	-10%	-7%
O=C(NCc1ccccn1)C1CC(=O)N(C2CCCC2)C1 (stereo not drawn)	16%	-4%
Cc1ccc(-c2noc(CCC(=O)Nc3cc(C)ccn3)n2)cc1	.	-14%
CCCN(C(=O)Cn1ncc2c(=O)oc3ccccc3c21)c1cccc(C)c1	-1%	5%
O=C1CCc2ccc(NS(=O)(=O)c3ccc(F)cc3)cc2N1	-14%	-28%
CCOC(=O)Nc1nc(C)c(C(=O)c2ccc(Cl)cc2)s1	.	-11%
O=C1NC(=O)N(CCC2=CCCCC2)C(=O)/C1=C\c1cccs1	-8%	4%
COc1ccc(-n2cccc2C=O)cc1	-14%	-6%
O=C(NCc1n[nH]c(=S)n1-c1ccc(Cl)c(Cl)c1)c1ccco1	-1%	-15%
Cc1cc(C)c(S(=O)(=O)N2CCCOC2CNC(=O)C(=O)NCc2ccccn2)c(C)c1 (stereo not drawn)	i	6%
Fc1cccc(Cl)c1CSc1nnnn1-c1ccc2c(c1)OCO2	?	?
O=C(COC(=O)[C@@H]1CCCN1C(=O)c1cccs1)Nc1ccc(F)cc1[N+](=O)[O-]	i	-2%
CCOC(=O)c1c(C)[nH]c(C)c1S(=O)(=O)N1CCC(C(=O)Nc2ccc(C)c(N(C)C)c2)CC1	i	0%
S=C(NC1CCCC1)NC1CC1	i	-15%
CCn1c(Cc2ccccc2)nnc1SCC(=O)Nc1ccc2c(c1)OCO2	.	-29%
CCc1ccc(NC(=O)c2c(C(=O)Nc3ccccc3)sc3nc(C)cc(=O)n23)cc1	-7%	-4%
COC(=O)c1ccccc1NC(=O)CSc1nnc(-c2cccnc2)n1N	-2%	0%
COc1ccc(-c2nc(CSCC(=O)NC3CC3)c(C)o2)cc1OC	-16%	-3%
O=C(COC(=O)c1ccc(Br)o1)NCCc1ccccc1	-2%	-4%
CN1CCN(c2nc3ccccn3c(=O)c2C=C2C(=O)N(C)C(=O)N(C)C2=O)CC1	-8%	-2%
O=C(COC(=O)Cc1ccccc1[N+](=O)[O-])NCC1CCCCC1	-3%	-2%
Nc1c(C(=O)Nc2cccc(Br)c2)sc2nc3c(cc12)N1CCC3CC1	-27%	-16%
Cc1occc1C(=O)N(C)Cc1nc(-c2ccc(Cl)cc2)no1	-12%	-23%
OCC[C@H]1C[C@H](O)[C@@H](O)[C@@]2(CCCO2)O1	i	-4%
Nc1cc(Cl)ccc1C(=O)OCC(=O)NC1CCCCC1	i	-11%
O=C(CCNC(=O)c1ccc(Br)cc1)NNC(=O)C1COc2ccccc2O1 (stereo not drawn)	-11%	-21%
Cc1ccc(NC(=O)CN(c2ccccc2F)S(C)(=O)=O)cc1	-11%	-9%
O=C(CCN1C(=O)c2ccccc2C1=O)Nc1ccccn1	-11%	-2%
Cc1nn2c(=O)cc(COC(=O)c3ccc(NC(=O)CCc4ccccc4)cc3)nc2s1	-1%	-6%
CCSc1ncc(Cl)c(C(=O)Nc2sc(C(C)=O)c(C)c2C(=O)OC)n1	-27%	-14%
CSCCC(NC=C1C(=O)OC(C)(C)OC1=O)C(=O)O (stereo not drawn)	-8%	-4%
COc1ccc(C)cc1NC(=O)C(OC(=O)c1cc(C)oc1C)c1ccccc1 (stereo not drawn)	-19%	-19%
CCCCN1C(=O)C(CC(=O)NCCCN(C)C)CC(C(=O)N(C(C)C)C(C)C)=C1C (stereo not drawn)	-8%	-2%
O=C(Nc1ccc(F)c(Cl)c1)[C@@H]1O[C@H](CO)[C@H](O)[C@H](O)[C@H]1O	15%	0%
COc1ccc(-c2coc3c(C(=O)Nc4cccc(NS(C)(=O)=O)c4)cccc23)c(C)c1	i	-5%
CC1CCCCC12NC(=O)N(CC(=O)NC(=O)Nc1ccc3c(c1)OCCO3)C2=O (stereo not drawn)	.	?
O=C(CSC1=Nc2ccccc2C2=NC(CC(=O)NC3CCCCC3)C(=O)N12)Nc1ccc(F)cc1 (stereo not drawn)	-28%	-16%
O=C(Nc1nc2c(F)cc(F)cc2s1)C1CC(=O)N(Cc2ccco2)C1 (stereo not drawn)	-4%	-2%
COc1ccc(CNC2CC(=O)N(C)C2=O)cc1 (stereo not drawn)	i	-4%
O=C1NC(=Nc2ccc(Cl)cc2)/C(=C/c2ccco2)S1	-1%	12%
CC(=O)c1ccc2c(c1)N(Cc1ccccc1)C(=O)C(C)S2 (stereo not drawn)	i	-30%
O=C(Nc1cccc(C(=O)OCc2cc(=O)n3nc(C4CC4)sc3n2)c1)c1ccc(F)cc1	-5%[7.34 µM]	-14%[7.34 µM]
CCOC(=O)C1CCN(C(=O)CN2C(=O)C(CC)Oc3ccccc32)CC1 (stereo not drawn)	i	18%
CCOc1ccc(NC(=O)c2nc3nc(C)cc(C(F)F)n3n2)cc1	-4%	12%
